Assay outcomes from PubChem.
PINK1 expr mod = A Quantitative High throughput Screen to Identify Chemical Modulators of PINK1 Expression; Potency, µM (highest dose often 76.6 µM), without a hit: at the highest dose activation (PINK1 increase), most hits filed as activators; PINK1 immunofluorescence, high-content cytometry, 24 h; 0.2% of 410,000 active; AID 624263, 2012; active = well fitted activation curve with a large enough effect; inconclusive = small, poorly fitted or top-dose-only effect; inactive = flat fitted curve, though single readings scatter; cell line not stated here;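 also: potency is read from the fitted curve at half-maximal effect; % of control where 0% means no effect; nearly all actives have a fitted effect of over 65% in size; a mitochondrial uncoupler was the plate control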
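Stable cell line treated 24 h with compounds at 5 concentrations (CCCP controls), then fixed and immunostained for PINK1 plus nuclear and cell stains; PINK1 immunofluorescence quantified by laser-scanning microplate cytometry.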
D2 agonist = Beta-Arrestin HTS for Positive Allosteric Modulators of the Human D2 Dopamine Receptor: Agonists. D(2) dopamine receptor (Homo sapiens), P14416. DiscoveRx PathHunter D2 beta-arrestin, luminescence, 90 min; 100% = 57 uM dopamine signal. activation, % (concentration not given with the values). 0.084% of 360,000 active. AID 624465, 2012; in the data active = activation above about 40%; inconclusive = about 15% to 40%; inactive = below about 15%; also: compound concentration not given in the record; the text of the record calls up to 30% inactive
Target sequence (P14416 whole entry, looked up): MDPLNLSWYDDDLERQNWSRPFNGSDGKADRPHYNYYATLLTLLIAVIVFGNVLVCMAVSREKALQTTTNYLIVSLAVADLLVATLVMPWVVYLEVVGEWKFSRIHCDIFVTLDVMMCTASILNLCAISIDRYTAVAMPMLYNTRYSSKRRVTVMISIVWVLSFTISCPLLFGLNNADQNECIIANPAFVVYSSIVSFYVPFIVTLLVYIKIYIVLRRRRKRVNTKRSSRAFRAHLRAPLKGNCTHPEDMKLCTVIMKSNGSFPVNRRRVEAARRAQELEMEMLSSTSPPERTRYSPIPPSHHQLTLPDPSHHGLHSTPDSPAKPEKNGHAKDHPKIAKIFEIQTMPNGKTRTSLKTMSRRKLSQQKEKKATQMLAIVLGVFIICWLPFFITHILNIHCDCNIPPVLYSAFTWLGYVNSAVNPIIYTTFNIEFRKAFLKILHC
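Agonist mode: compounds alone added to overnight-plated D2 PathHunter cells for 90 min at 37 C, with 57 uM final dopamine (EC100) defining full response. Beta-arrestin recruitment detected by chemiluminescent reagent, read after 1 h at ambient temperature.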
TRPML1 ag = qHTS for Agonists of the Human Mucolipin Transient Receptor Potential 1 (TRPML1). TRPML1-expressing cells, Ca2+ dye fluorescence, FDSS; host cell line not named in the record; reference of the full effect not given here. 0.12% of 410,000 active. Mucolipin-1 (Homo sapiens), Q9GZU1. activation, % (no concentration beside the values); in the data active = activation above about 50%; inconclusive = about 30% to 50%; inactive = below about 30%; also: 0% is about no effect; the text of the record puts the active cut at 80%
Target sequence (Q9GZU1 whole entry, looked up): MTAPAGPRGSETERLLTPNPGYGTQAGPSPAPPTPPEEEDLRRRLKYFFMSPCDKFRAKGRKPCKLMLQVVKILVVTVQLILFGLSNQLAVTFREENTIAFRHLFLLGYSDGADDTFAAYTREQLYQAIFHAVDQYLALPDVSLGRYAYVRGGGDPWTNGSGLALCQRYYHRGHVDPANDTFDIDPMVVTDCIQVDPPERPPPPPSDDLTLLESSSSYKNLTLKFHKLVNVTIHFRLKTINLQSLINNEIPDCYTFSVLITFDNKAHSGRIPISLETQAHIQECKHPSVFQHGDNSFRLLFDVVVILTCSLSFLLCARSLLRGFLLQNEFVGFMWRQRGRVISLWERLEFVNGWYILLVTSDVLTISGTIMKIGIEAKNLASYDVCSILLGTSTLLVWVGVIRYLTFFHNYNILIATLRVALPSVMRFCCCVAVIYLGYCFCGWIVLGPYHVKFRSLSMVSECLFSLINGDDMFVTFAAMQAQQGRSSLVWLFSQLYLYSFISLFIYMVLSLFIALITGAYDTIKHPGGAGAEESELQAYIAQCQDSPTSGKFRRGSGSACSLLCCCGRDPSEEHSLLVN
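In this qHTS format, compounds were pin-transferred onto Ca8-dye-loaded TRPML1-DL cells induced with Tet overnight, and intracellular Ca2+ fluorescence was recorded kinetically for 110 s after a 10 s baseline. A subsequent 4uM final 54-4 (EC80) addition followed by a second 110 s read served as the antagonist phase.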
Six1-Eya2 blk = qHTS Assay for Inhibitors of the Six1/Eya2 Interaction; Homeobox protein SIX1 (Homo sapiens) + Protein phosphatase EYA2 (Homo sapiens), …; AlphaScreen GST-Six1/His-Eya2 binding, biochemical; stronger effect = lower value; control for the full effect not named in the record; activity change, % (concentration not given with the values); 0.56% of 360,000 active; AID 651725, 2012; in the data active = activity change below about -65%; inconclusive = about -30% to -65%; inactive = above about -30%; also: % is scaled to controls: 0 for no effect and ±100 for the full control effect
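Compounds are tested against tagged Six1 and Eya2 proteins bridged by glutathione donor and nickel acceptor beads; after a one-hour incubation at 37 °C without light, AlphaScreen emission is recorded.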
CtBP-E1A inh = qHTS Assay for Inhibitors of the CtBP/E1A Interaction. CtBP / adenovirus E1A interaction (AlphaScreen). AlphaScreen GST-E1A/His-CtBP binding, 1536-well; stronger effect = lower value; control for the full effect not named in the record. activity change, % (concentration not given with the values). 0.49% of 340,000 active; in the data active means activity change below about -65%; inconclusive means about -30% to -65%; inactive means above about -30%; also: % is scaled to controls: 0 for no effect and ±100 for the full control effect
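Steps: dispense buffer (Tris pH 8.0, NaCl 300 mM, TCEP 1 mM, BSA, Tween 20); add 5X protein mix (GST-E1A, His-CtBP, 125 nM each); pin 23 nL compound; 2 h at 37 °C, dark; add 5X beads (50 ug/mL); 1 h; read.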
TRPML1 blocker = qHTS for Inhibitors of the Human Mucolipin Transient Receptor Potential 1 (TRPML1). 0.02% of 390,000 active. TRPML1-inducible cells, Ca2+ dye fluorescence, FDSS; stronger effect = lower value; inhibition of EC80 agonist-evoked calcium signal. AID 624415, 2012. Mucolipin-1 (Homo sapiens), Q9GZU1. activity change, negative = inhibition, % (test concentration not listed); in the data active means activity change below about -50%; inconclusive means about -30% to -50%; inactive means above about -30%;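 also: stimulus is agonist 54-4 at its EC80 concentration; % is scaled to controls: 0 for no effect and ±100 for the full control effect; compound concentration not given in the record; the text of the record puts the active cut at -80%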
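Calcium fluorescence in TRPML1-DL cells induced overnight with Tet: a 110 s read after compound pin addition, then a 110 s antagonist read after challenge with 54-4 at 4 uM final (EC80).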
* marks the source's active call; other numbers are inactive results; ? = inconclusive; nt = no result given; [ ] = another dose, or the depositor's remark. Rows were taken by chance; overall some 1% were active at least once.

canonical_smiles,PINK1 expr mod,D2 agonist,TRPML1 ag,Six1-Eya2 blk,CtBP-E1A inh,TRPML1 blocker
Cc1ccc(NC(=O)C2CCCN(c3ncnc4c3nc3n4CCCCC3)C2)c(Br)c1 (stereo unspecified),1.7%,nt,-0.8,nt,nt,2
O=C1C(Cc2ccccc2)Nc2ncnc(N3CCN(c4ccccc4)CC3)c2N1Cc1ccc(Cl)cc1 (stereo unspecified),0.1%,-13,0.2,-24,-29,-7
CC(=O)Nc1ccc(NC(=O)Cn2cnc3c(cnn3C(C)(C)C)c2=O)cc1,-1.5%,-6.7,-0.5,0,1,-4
COc1ccc(-n2nc(C(=O)N3CCN(c4ccccc4OC)CC3)c3c4ccccc4n(C)c3c2=O)cc1Cl,-0.7%,nt,-0.4,nt,nt,-4
COc1cc(/C=C(\C#N)c2nc3ccccc3[nH]2)ccc1Oc1ccc([N+](=O)[O-])cn1,?,7.2,0.9,-9,-4,19
COc1ccc(NC(=O)CN(C)S(=O)(=O)c2ccc(Br)s2)cc1OC,8.3%,-4.1,1.3,-7,-5,3
CCCCSc1nnc2nc(C)cc(C)n12,-2.1%,0.2,2.1,-1,-15,-13
CC(C)NC(=O)C1(C)CCN1C(=O)c1ccc(F)c(Cl)c1 (stereo unspecified),1.5%,-4.4,-0.1,0,1,6
COc1ccc2[nH]cc(CCNC(=O)Cn3cc(C)c(=O)[nH]c3=O)c2c1,-0.2%,-1.7,0.2,0,0,-9
COc1ccc(N2CCN(CCNC(=O)Nc3cc(Cl)ccc3Cl)CC2)cc1,13%,-6.0,0.7,-12,-1,24
CCOc1ccccc1NC(=O)C1CCN(S(=O)(=O)c2ccc(Br)cc2)CC1,-0.9%,nt,0.0,nt,nt,4
CCN(CC(=O)Nc1c(F)cccc1F)C(=O)CNC(=O)c1cccs1,-2.5%,4.3,0.3,8,-17,-14
COc1ccc(NC(=O)Cn2c(=O)n(CC3CCCO3)c(=O)c3cc(OC)c(OC)cc32)c(OC)c1 (stereo unspecified),1.5%,-1.6,-1.2,4,3,15
COc1cccc(/C=C/c2onc(C)c2S(=O)(=O)N2CCC(C(=O)N3CCC(C)CC3)CC2)c1,0.1%,nt,1.6,nt,nt,4
Cn1nnnc1SCC(=O)N(C1CCCCC1)C1CCS(=O)(=O)C1 (stereo unspecified),1.5%,6.5,-0.1,3,nt,-11
Cc1cccc(C)c1NC(=O)CS(=O)(=O)c1nc(-c2ccc(Cl)cc2)cn1-c1ccccc1,-0.8%,nt,0.0,nt,nt,7
COCCSc1ccccc1C(=O)Nc1ccc(Cl)cc1,2.1%,0.7,1.4,-24,nt,10
COC(=O)c1c(NC(=S)NNC(=O)c2ccc(Cl)s2)sc(C(=O)N(C)C)c1C,-0.7%,-3.8,2.7,3,0,-1
COc1ccc(-n2c(=O)c3c(c4cc(OC)ccc4n3C)n(Cc3ccc(F)cc3Cl)c2=O)cc1,-0.2%,nt,1.0,nt,nt,38
COc1ccc(S(=O)(=O)N(C)C)cc1NC(=O)Cc1ccc(S(=O)(=O)N2CCOCC2)s1,4.7%,0.4,0.7,8,0,1
Cc1nc2nc(NCc3cccc(Br)c3)[nH]n2c(=O)c1Cc1ccccc1,1.8%,nt,-0.5,nt,nt,32
CC(Oc1ccc(Cl)cc1)C(=O)Nc1sccc1C(N)=O (stereo unspecified),1.4%,5.3,2.3,-8,-3,13
O=C(CSc1nnc2c(n1)[nH]c1ccccc12)NCc1ccccc1F,0.6%,0.1,-0.5,-7,-3,43
CCCC(C)NC(=O)COc1ccc(S(=O)(=O)N2CCCC2)cc1 (stereo unspecified),0.4%,5.1,-1.0,8,8,1
CNC(=S)NC1CC2CCC(C1)N2Cc1ccccc1 (stereo unspecified),nt,-2.1,0.6,-7,-10,8
CCCCCn1c(=O)[nH]c2cc(C(=O)NCCN(CC)CC)ccc2c1=O,0.9%,0.8,0.0,1,2,4
Cc1nc2ccn(Cc3cccs3)c(=O)c2cc1C(=O)N1CCN(c2ccccc2F)CC1,1.2%,nt,-0.7,nt,nt,-12
COc1ccc(N2CCOCC2)c(NC(=O)COc2cccc(C)c2C)c1,2.7%,2.3,7.1,0,1,34
O=C1NC[C@H](CCCCN2CCN(CCc3ccccc3)C(=O)C2=O)N(CCc2ccc(O)cc2)C1=O,-0.1%,nt,-0.1,-2,8,nt
Cc1cccc(NC(=O)CN2CCN(C(=O)CN3C(=O)NC4(CCCCC4C)C3=O)CC2)c1C (stereo unspecified),2.3%,-2.5,0.2,1,1,-1
Cc1n[nH]c(C)c1S(=O)(=O)N(CC(=O)NC1CCCC1)c1ccc(C(C)C)cc1,2.9%,-3.3,0.6,-5,4,32
CCN1CCc2nc3sc(C(=O)c4ccccc4)c(N)c3cc2C1,12%,nt,3.6,nt,nt,9
O=C(CN1CCCCC1)Nc1cc(S(=O)(=O)N2CCOCC2)ccc1N1CCCC1,-0.6%,-2.5,-1.3,5,nt,6
O=C(Cn1c(NCCO)nc2ccccc21)c1ccc(F)cc1,-0.4%,-0.7,-1.0,4,nt,-9
COc1ccccc1CNS(=O)(=O)c1c(C(=O)N2CCCC2)c(C)n(C)c1C,-0.6%,-0.7,0.5,-2,nt,24
O=C(COCC(=O)Nc1cccc(C(F)(F)F)c1)Nc1cccc(C(F)(F)F)c1,?,0.2,-0.1,0,0,-11
O=C1Nc2ccccc2C(O)(C(=O)NCc2ccco2)N1c1ccc(Cl)cc1 (stereo unspecified),-2.4%,-5.0,-0.5,-3,-1,6
COc1ccc(C2NC(=O)NC(C)=C2[N+](=O)[O-])cc1 (stereo unspecified),1.5%,5.6,-0.1,-1,5,3
CC(=O)Nc1ccc(C(=O)Nc2ccc3c(c2)N(C2CCCC2)C(=O)c2ccccc2S3)cc1,2.9%,nt,0.3,nt,nt,2
Cc1sc2nc(C3CC3)nc(N3CCN(C(=O)c4ccc(F)cc4)CC3)c2c1C,4.9%,-2.8,-0.1,-11,-9,19
Cc1ccc(S(=O)(=O)c2c(N)n(NC(=O)C3CC3)c3nc4ccccc4nc23)cc1,2.2%,0.2,-0.2,1,-1,5
CC(C)Oc1ccc(S(=O)(=O)N2CCCCC2)cc1NC(=O)C1=COCCO1,1.7%,-2.4,2.3,-1,-2,24
CCS(=O)(=O)C1=NSC2=NC(=O)/C(=C\c3ccc(OS(=O)(=O)c4ccccc4)cc3)C(=N)N21,1.5%,-3.9,1.1,4,-21,-4
O=C(Nc1ccccc1[N+](=O)[O-])c1cccc(N2C(=O)CCC2=O)c1,-0.5%,3.8,0.3,13,-15,2
O=C(c1ccco1)N1CCN(C(=O)c2cc(-c3ccccn3)nc3ccc(Cl)cc23)CC1,0.7%,1.9,-0.4,-87*,-92*,-10
COc1ccc(N2CCN(CCNC(=O)C3CCN(S(=O)(=O)c4cccs4)CC3)CC2)cc1,2.9%[38.3 µM],1.7,0.8,-1,3,-4
O=C(O)CCC(=O)Nc1cccc(C(=O)Nc2cccc(Cl)c2)c1,9.6%,-1.0,-0.4,2,-4,3
CCOC(=O)c1ccc(NC2c3ccccc3C(=O)N2c2ccccn2)cc1 (stereo unspecified),1.4%,-2.2,-0.3,5,-15,-6
O=C(COC(=O)c1cc(Cl)ccc1O)Nc1ccc2c(c1)OCCO2,0.4%,-0.1,-0.9,-9,nt,-13
CC(C)c1nnc(NC(=O)COC(=O)/C=C/c2ccc([N+](=O)[O-])cc2)s1,-0.2%,-8.0,0.1,-7,-20,6
S=C(NC1CCCC1)NC1CCCC1,2.0%,-1.8,1.5,5,11,-11
Cc1ccc(NC(=O)CCSc2nnc(C)o2)cc1,-3.9%,-0.9,2.1,0,11,-2
Cc1ccccc1NC(=O)Cn1cnc2c(oc3nc4c(cc32)COC(C)(C)C4)c1=O,0.7%,-1.7,-0.5,-18,-16,0
CC(=O)N1CCc2c(sc(NC(=O)Cc3ccc(C)cc3C)c2C#N)C1,2.8%,-3.4,-0.9,19,0,2
c1ccc(-c2cc(-c3nc4ccccc4[nH]3)c3ccccc3n2)cc1,-2.8%,0.8,0.1,12,0,18
CS(=O)(=O)Nc1cccc(C2=NN(C(=O)c3ccc(F)cc3)C(c3cccs3)C2)c1 (stereo unspecified),0.4%,-0.8,-0.3,5,nt,4
CN(C)CC1CCCCC1OC(=O)c1ccc(Br)cc1 (stereo unspecified),-1.4%,-2.8,0.3,8,12,16
COc1ccc(/C=N/NC(=O)c2ccc(CN3c4cccc5cccc(c45)S3(=O)=O)cc2)cc1,2.2%,0.2,0.2,36,0,-11
O=C(c1ccco1)N1CCCC(c2nc3c(nnn3Cc3cccc(Cl)c3)c(=O)[nH]2)C1 (stereo unspecified),3.2%,-2.5,1.6,0,5,11
O=C(CCCN1C(=O)/C(=C\c2ccccc2)SC1=S)N1CCOCC1,1.4%,1.8,-0.4,-2,-3,20

Going on with the list.
canonical_smiles,PINK1 expr mod,D2 agonist,TRPML1 ag,Six1-Eya2 blk,CtBP-E1A inh,TRPML1 blocker
Cc1cc(C)nc(N2CCC(C(=O)NCc3ccccc3)CC2)n1,1.8%,-0.9,-0.8,1,1,1
Cc1ccc(CNC(=O)C(=O)NCC(c2ccco2)N2CCOCC2)cc1 (stereo unspecified),4.6%,-7.1,0.2,18,11,2
CC(C)C(=O)Nc1ccc([N+](=O)[O-])cc1Br,0.3%,0.0,-0.8,-9,-1,1
O=C(c1cccs1)c1ccc(-c2cccs2)s1,-1.8%,-1.9,-0.3,75,69,1
O=C(N/N=C/c1cc([N+](=O)[O-])ccc1O)c1cc(-c2ccccc2)nc2ccccc12,?,-0.3,0.0,?,-27,11
CCN1CCSc2ccc(C(=O)Nc3ccc(NC(C)=O)cc3)cc21,2.9%,-3.3,0.1,-2,-6,-1
COc1ccccc1Cn1c(=S)[nH]c2ccccc2c1=O,12%,2.7,0.8,4,13,28
Nc1c(C(=O)NCc2ccccc2)sc2nc(N3CCOCC3)c3c(c12)CCCC3,6.5%,-0.3,5.2,2,0,7
Cn1ccnc1SCC(=O)c1ccc([N+](=O)[O-])cc1,2.2%,-1.4,-0.2,-3,-11,-12
